Compound activity as filed in PubChem.
GIV-Gai inh: inhibitors of GIV peptide binding to Galpha-i3, primary screen, biochemical, fluorescence polarization, FITC-GIV GBA peptide, rat Galphai3 | Guanine nucleotide-binding protein G(i) subunit alpha-3 (Rattus norvegicus), P08753 | 90 min; stronger effect = lower value; scaled: aluminum fluoride 0%, vehicle 100% | percent of control (FP), % (no concentration beside the values) | 0.42% of 210,000 active | AID 1224905, 2016;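 active = replicate mean at 85% of control or lower, very high polarization wells dropped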;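 also: wells of about 15 µL received 100 nL stock; the first replicate is given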
Target sequence (P08753 whole entry, looked up): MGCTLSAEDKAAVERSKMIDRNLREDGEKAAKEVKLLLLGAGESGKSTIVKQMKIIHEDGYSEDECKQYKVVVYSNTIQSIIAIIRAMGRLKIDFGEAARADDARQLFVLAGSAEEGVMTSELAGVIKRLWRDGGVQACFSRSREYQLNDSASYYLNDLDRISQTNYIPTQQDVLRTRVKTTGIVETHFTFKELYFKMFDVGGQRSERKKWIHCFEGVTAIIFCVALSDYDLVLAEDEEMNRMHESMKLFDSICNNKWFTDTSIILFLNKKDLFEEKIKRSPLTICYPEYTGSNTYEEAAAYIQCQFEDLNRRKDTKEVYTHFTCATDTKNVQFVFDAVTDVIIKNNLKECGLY
HCMV NEC inh: inhibitors of HCMV UL50-UL53 interaction, biochemical, HTRF; HCMV UL50-UL53 nuclear egress complex (human cytomegalovirus); normalized percent inhibition; inhibition, % (test concentration not listed); 0.15% of 190,000 active; AID 1918969, 2023;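 active = both replicates at 50% or more, plus weaker picks with an unusually low signal ratio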;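 also: stock transfer was 100 nL into about 20 µL; 0% = negative control wells and 100% = wells with untagged competitor protein; inactives centre near -12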
Sa growth 42C: S. aureus growth inhibition at 42 and 30 °C, primary screen, LtaS inhibitor project, RN4220, two temperatures; OD600, 20 h, 42 °C; stronger effect = lower value; relative growth, % (test concentration not listed); 0.53% of 170,000 active;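 active = growth at 42 °C up to 50% and 20 or more points under that at 30 °C, or under 10% at both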;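 also: 300 nL library stock went into each well; scaled to the means of positive and negative controls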
Sa growth 42C second temp: also measured in Sa growth 42C; calls as there; relative growth, %; measured here: growth at 30 °C;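 optical density after 20 h as mean of two plates; 100% = untreated growth and lower means inhibition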
* hit, by the source's call. Hits appear at their usual frequency; any-hit rate near 0.8%.

Screening COc1cc(C2Nc3ccccc3NC3=C2C(=O)CC(c2ccc4c(c2)OCO4)C3)cc(OC)c1O (configuration not stated) returned GIV-Gai inh 97 and HCMV NEC inh -18.
Cc1ccc(C)c(N2CCN(C(=O)c3cc(C(F)(F)F)n(C)n3)CC2)c1 was read as GIV-Gai inh 101 and HCMV NEC inh -12.
`O=C(COc1ccc(S(=O)(=O)N2CCCc3ccccc32)cc1)Nc1ccc2c(c1)OCO2` gave GIV-Gai inh 100, HCMV NEC inh -14, Sa growth 42C 89 and Sa growth 42C second temp 101.
For CC1CCCN(C(=O)COC(=O)c2cccc(Cl)c2)C1 (configuration not stated) the results were HCMV NEC inh 10, Sa growth 42C 74 and Sa growth 42C second temp 99.
`C/C(=C\C#N)CCc1ccccc1` gave GIV-Gai inh 99, HCMV NEC inh -1, Sa growth 42C 108 and Sa growth 42C second temp 98.
CCc1nc(SCc2cc(=O)c3cc(F)ccc3[nH]2)n[nH]1 was read as GIV-Gai inh 112, Sa growth 42C 104 and Sa growth 42C second temp 97.
O=C(CCc1nc2sc3c(c2c(=O)[nH]1)CCCC3)N1CCCCC1 was read as GIV-Gai inh 97, HCMV NEC inh 5, Sa growth 42C 82 and Sa growth 42C second temp 92.
Screening O=C(Cn1cc2c(n1)CCCCC2)NCC1CCCO1 (configuration not stated) returned GIV-Gai inh 102, HCMV NEC inh -1, Sa growth 42C 87 and Sa growth 42C second temp 85.
Screening O=C(CSc1nnc(Cc2cccs2)n1C1CC1)Nc1ccc(Cl)cc1F returned HCMV NEC inh -17, Sa growth 42C 116 and Sa growth 42C second temp 62.
`Cn1/c(=N/S(C)(=O)=O)sc2ccccc21` gave HCMV NEC inh -4, Sa growth 42C 90 and Sa growth 42C second temp 55.
Screening Cc1ccc(Cl)cc1N1CCN(C(=O)CSCc2nc(-c3ccc(Cl)cc3)oc2C)CC1 returned GIV-Gai inh 101 and HCMV NEC inh -29.
`O=C1CCC(C(=O)OCc2cccc3ccccc23)=NN1` gave HCMV NEC inh -23, Sa growth 42C 88 and Sa growth 42C second temp 97.
Screening Cc1ccc(C)c(N(C)C(=O)c2cc3c(s2)-c2ccccc2OC3)c1 returned GIV-Gai inh 107, HCMV NEC inh 16, Sa growth 42C 76 and Sa growth 42C second temp 105.
For CNC(=O)NC(=O)C(C)Sc1nc2sccc2c(=O)n1-c1ccccc1 (configuration not stated) the results were HCMV NEC inh -11, Sa growth 42C 94 and Sa growth 42C second temp 86.
`CC1CC(NC(=O)c2ccc(Br)cc2)CC(C)(C)C1` (configuration not stated) gave HCMV NEC inh -1, Sa growth 42C 115 and Sa growth 42C second temp 84.
For Cc1cc2c(n1-c1ccc(C(=O)NCc3cccc(Br)c3)cc1)CCC(C)C2 (configuration not stated) the results were GIV-Gai inh 107, Sa growth 42C 102 and Sa growth 42C second temp 90.
For COc1ccc(-c2nc(CNC(=O)NC3CCCCC3)c(C)o2)cc1 the results were GIV-Gai inh 112, Sa growth 42C 112 and Sa growth 42C second temp 101.
For O=C1CCN(C(=O)c2ccc(COc3ccccc3)cc2)CC1 the results were HCMV NEC inh -29, Sa growth 42C 93 and Sa growth 42C second temp 90.
Screening O=C(NC(c1ccccc1)c1ccccc1)c1ccc(=O)[nH]c1 returned HCMV NEC inh 8, Sa growth 42C 104 and Sa growth 42C second temp 93.
For O=C(NCC(c1ccccc1)c1c[nH]c2ccccc12)c1ccc(F)cc1 (configuration not stated) the results were GIV-Gai inh 108 and HCMV NEC inh 0.

The final 3 entries of the part above lead into the next:
For O=C1CCN(C(=O)c2ccc(COc3ccccc3)cc2)CC1 the results were HCMV NEC inh -29, Sa growth 42C 93 and Sa growth 42C second temp 90.
Screening O=C(NC(c1ccccc1)c1ccccc1)c1ccc(=O)[nH]c1 returned HCMV NEC inh 8, Sa growth 42C 104 and Sa growth 42C second temp 93.
For O=C(NCC(c1ccccc1)c1c[nH]c2ccccc12)c1ccc(F)cc1 (configuration not stated) the results were GIV-Gai inh 108 and HCMV NEC inh 0.
Screening O=C(NCCCN1CCN(c2ccccc2F)CC1)c1ccc2nc(Cc3ccccc3)oc2c1 returned GIV-Gai inh 101, Sa growth 42C 97 and Sa growth 42C second temp 79.
Screening NC(=O)C1CCN(C(=S)Nc2ccc(Cl)cc2)CC1 returned GIV-Gai inh 99, Sa growth 42C 91 and Sa growth 42C second temp 86.
Screening CCc1cccc(NC(=O)CN2C(=O)COc3ccc(S(=O)(=O)N4CCC(C)CC4)cc32)c1 returned GIV-Gai inh 100, Sa growth 42C 97 and Sa growth 42C second temp 89.
For COc1cc(C(=O)ON=C2CCSCC2)cc(OC)c1OC the results were GIV-Gai inh 110, HCMV NEC inh 5, Sa growth 42C 110 and Sa growth 42C second temp 93.
Cc1cccc(C(=O)Nc2nnc(S(=O)(=O)N3CCCc4ccccc43)s2)c1 was read as GIV-Gai inh 105, HCMV NEC inh -9, Sa growth 42C 89 and Sa growth 42C second temp 42.
Screening O=C(NCCc1ccccc1)c1ccc2c(c1)CCN2S(=O)(=O)c1ccc(Br)cc1 returned GIV-Gai inh 104, HCMV NEC inh -15, Sa growth 42C 98 and Sa growth 42C second temp 84.
C=CCn1c(=N)n(CC(O)C(C)(C)C)c2ccccc21 (configuration not stated) was read as GIV-Gai inh 102, HCMV NEC inh -6, Sa growth 42C 94 and Sa growth 42C second temp 85.
Cc1cccc(NC(=O)C(=O)NCC(c2ccc3c(c2)OCO3)N2CCN(c3ccccc3)CC2)c1 (configuration not stated) was read as GIV-Gai inh 102, Sa growth 42C 130 and Sa growth 42C second temp 85.
Cc1c(C(=O)OCC(=O)c2cccs2)oc2ccccc12 was read as HCMV NEC inh 10, Sa growth 42C 101 and Sa growth 42C second temp 97.
Screening COC(=O)c1ccc(-c2ccco2)n1CC(=O)c1ccccc1 returned GIV-Gai inh 112, Sa growth 42C 96 and Sa growth 42C second temp 63.
CCc1nc2nc(C)c(Cc3ccccc3C)c(=O)n2[nH]1 was read as GIV-Gai inh 94 and HCMV NEC inh -24.
Screening N#CCCN1C(=O)c2ccccc2C1=O returned GIV-Gai inh 101, HCMV NEC inh -27, Sa growth 42C 100 and Sa growth 42C second temp 95.
O=C(c1ccc(F)c(Cl)c1)N1CCC(c2nc(-c3ccc(F)cc3)no2)CC1 was read as GIV-Gai inh 101 and HCMV NEC inh -7.
Screening Cc1ccc(CC(C#N)Sc2nnc(C3CCCCC3)o2)cc1 (configuration not stated) returned HCMV NEC inh 8, Sa growth 42C 117 and Sa growth 42C second temp 72.
`CCOc1ccc(NC(=O)c2c(NCc3ccc(C)o3)sc3c2CCCCC3)cc1` gave GIV-Gai inh 116, Sa growth 42C 86 and Sa growth 42C second temp 77.
CC(C)(C)NC(=S)NCCc1ccccc1 was read as GIV-Gai inh 99, HCMV NEC inh 1, Sa growth 42C 110 and Sa growth 42C second temp 102.
N#Cc1ccccc1Cn1c(=O)n(C2CCCC2)c(=O)c2ccccc21 was read as GIV-Gai inh 108, HCMV NEC inh 1, Sa growth 42C 92 and Sa growth 42C second temp 86.
NC(=O)c1ccc(OCc2ccccc2)cc1 was read as GIV-Gai inh 103, HCMV NEC inh -1, Sa growth 42C 113 and Sa growth 42C second temp 77.
Screening O=C(CSc1nc2ccccc2c(=O)n1CCc1ccccc1)NCc1ccco1 returned GIV-Gai inh 109, Sa growth 42C 107 and Sa growth 42C second temp 90.
COc1ccc(CNC(=O)c2cc3c(=O)n(Cc4ccco4)ccc3nc2C)cc1 was read as GIV-Gai inh 99, Sa growth 42C 87 and Sa growth 42C second temp 85.

Continued (5 carried over from the part before).
CC(C)(C)NC(=S)NCCc1ccccc1 was read as GIV-Gai inh 99, HCMV NEC inh 1, Sa growth 42C 110 and Sa growth 42C second temp 102.
N#Cc1ccccc1Cn1c(=O)n(C2CCCC2)c(=O)c2ccccc21 was read as GIV-Gai inh 108, HCMV NEC inh 1, Sa growth 42C 92 and Sa growth 42C second temp 86.
NC(=O)c1ccc(OCc2ccccc2)cc1 was read as GIV-Gai inh 103, HCMV NEC inh -1, Sa growth 42C 113 and Sa growth 42C second temp 77.
Screening O=C(CSc1nc2ccccc2c(=O)n1CCc1ccccc1)NCc1ccco1 returned GIV-Gai inh 109, Sa growth 42C 107 and Sa growth 42C second temp 90.
COc1ccc(CNC(=O)c2cc3c(=O)n(Cc4ccco4)ccc3nc2C)cc1 was read as GIV-Gai inh 99, Sa growth 42C 87 and Sa growth 42C second temp 85.
`CCN(c1ccccc1)S(=O)(=O)c1ccc(NC(=O)c2cc(=O)c3cc(C)c(C)cc3o2)cc1` gave GIV-Gai inh 99, HCMV NEC inh -19, Sa growth 42C 101 and Sa growth 42C second temp 88.
`CCCNC(=O)c1cc2sc(C)cc2n1C` gave GIV-Gai inh 96, HCMV NEC inh -15, Sa growth 42C 102 and Sa growth 42C second temp 84.
`COc1ccc(OC)c(NC(=O)Cn2c(=O)oc3cc(S(=O)(=O)NCc4ccccc4)ccc32)c1` gave GIV-Gai inh 110, Sa growth 42C 121 and Sa growth 42C second temp 74.
COCc1cc(C)nc2sc3c(c12)NCN(c1ccc(Cl)cc1)C3=O was read as GIV-Gai inh 105 and HCMV NEC inh -44.
For COc1ccc(-c2c(C)nn3c(NCCc4ccc(Cl)cc4)cc(C)nc23)cc1OC the results were GIV-Gai inh 104 and HCMV NEC inh -22.
For CCOc1ccc(NC(=O)CSc2nnc(C)n2CC2CCCO2)cc1 (configuration not stated) the results were GIV-Gai inh 101, HCMV NEC inh -21, Sa growth 42C 87 and Sa growth 42C second temp 92.
Screening Cc1cc(C(=O)NN2CCOCC2)nc2c1c(C)nn2-c1ccccc1 returned GIV-Gai inh 105, Sa growth 42C 103 and Sa growth 42C second temp 98.
For O=C(N1CCOCC1)n1ccnc1 the results were GIV-Gai inh 102, HCMV NEC inh 8, Sa growth 42C 100 and Sa growth 42C second temp 92.
For O=C(OCC(=O)N(C1CCCCC1)C1CCS(=O)(=O)C1)C1CC1 (configuration not stated) the results were HCMV NEC inh -43, Sa growth 42C 75 and Sa growth 42C second temp 94.
CCOCc1cn(CC(=O)c2ccc(OC(C)=O)c(OC(C)=O)c2)c(C)nc1=N was read as GIV-Gai inh 101, HCMV NEC inh -20, Sa growth 42C 79 and Sa growth 42C second temp 77.
For O=c1ccc2ccc(Oc3ncnc4scc(-c5ccc(F)cc5)c34)cc2o1 the results were HCMV NEC inh -2, Sa growth 42C 97 and Sa growth 42C second temp 89.
`CCc1ccccc1NC(=O)c1ccc2c(c1)CCCN2S(C)(=O)=O` gave GIV-Gai inh 106, HCMV NEC inh 3, Sa growth 42C 86 and Sa growth 42C second temp 100.
Screening O=C(O)Cc1ccc(C(=O)CSc2nccc(-c3cccs3)n2)s1 returned GIV-Gai inh 105, HCMV NEC inh -59, Sa growth 42C 77 and Sa growth 42C second temp 69.
Screening Cn1ncc2c(N3CCCC3)ncnc21 returned GIV-Gai inh 105, HCMV NEC inh 19, Sa growth 42C 108 and Sa growth 42C second temp 101.
Screening COc1ccc(S(=O)(=O)N2CC3(C)CC2CC(C)(C)C3)cc1 (configuration not stated) returned HCMV NEC inh -7, Sa growth 42C 94 and Sa growth 42C second temp 91.
COc1ccc(CNC(=O)Cn2nc(C)c3c(C)n(-c4ccccc4)nc3c2=O)cc1OC was read as GIV-Gai inh 113, Sa growth 42C 111 and Sa growth 42C second temp 93.
CCn1c2c(c(SCc3ccc(Cl)cc3)nc1=O)CCC2 was read as GIV-Gai inh 103 and HCMV NEC inh -9.
Screening COC(=O)C1=C(C)NC(=O)/C1=C/c1ccc(CNS(=O)(=O)c2ccc(Cl)cc2)o1 returned GIV-Gai inh 106, Sa growth 42C 85 and Sa growth 42C second temp 86.
`Cc1cc2c(cc1S(=O)(=O)C(C)CC(=O)N1CCN(c3ccccc3F)CC1)OCC(=O)N2` (configuration not stated) gave GIV-Gai inh 103, HCMV NEC inh -12, Sa growth 42C 98 and Sa growth 42C second temp 85.
For COc1ccc(C2c3cc4c(cc3OC3(O)CCCC(=O)C23)OCO4)cc1 (configuration not stated) the results were HCMV NEC inh -4, Sa growth 42C 88 and Sa growth 42C second temp 74.
Screening Cc1ccccc1N(C)S(=O)(=O)c1nnc(NC(=O)c2ccco2)s1 returned GIV-Gai inh 111, HCMV NEC inh 0, Sa growth 42C 90 and Sa growth 42C second temp 44.
COCCNC(=O)CCCn1c(=O)c2cc(OC)c(OC)cc2n(CC(=O)c2ccccc2)c1=O was read as GIV-Gai inh 107 and HCMV NEC inh -28.
Screening CCOc1ccc(S(=O)(=O)n2nc(C)c(S(=O)(=O)N3CCCCCC3)c2C)cc1 returned GIV-Gai inh 112, Sa growth 42C 111 and Sa growth 42C second temp 98.
CCOc1ccc(C2CC(=O)Nc3nc(N)[nH]c(=O)c32)cc1 (configuration not stated) was read as GIV-Gai inh 97 and HCMV NEC inh -11.
